D2 PAM = potentiates the human D2 dopamine receptor allosterically | potentiation, % (test concentration not listed) | DiscoveRx D2 beta-arrestin cells, luminescence, 90 min; 100% = 57 uM dopamine signal | P14416 | 360,000 compounds, 0.23% hits; active = potentiation of 50% or more; inconclusive = 30% to 50%; inactive = 30% or less;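 note: compound concentration not given in the record; tested on top of an EC20 dose of dopamine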
Target sequence (P14416 whole entry, looked up): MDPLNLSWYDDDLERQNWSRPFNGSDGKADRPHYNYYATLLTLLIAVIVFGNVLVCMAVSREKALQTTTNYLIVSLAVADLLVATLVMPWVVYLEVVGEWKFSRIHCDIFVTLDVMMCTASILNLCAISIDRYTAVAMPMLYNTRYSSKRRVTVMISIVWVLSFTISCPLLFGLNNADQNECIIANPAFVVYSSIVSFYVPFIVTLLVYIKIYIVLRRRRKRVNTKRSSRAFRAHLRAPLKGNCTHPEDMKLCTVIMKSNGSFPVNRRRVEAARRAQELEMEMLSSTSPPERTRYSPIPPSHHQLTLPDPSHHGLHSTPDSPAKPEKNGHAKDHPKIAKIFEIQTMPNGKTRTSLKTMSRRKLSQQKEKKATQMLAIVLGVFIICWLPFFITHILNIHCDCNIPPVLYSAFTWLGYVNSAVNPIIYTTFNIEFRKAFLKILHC
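PathHunter beta-arrestin assay in DiscoveRx D2 cells. Compounds were added with an EC20 of dopamine (50 nM final) for 90 min at 37 deg C. Luminescence was read 1 h after detection reagent, with 57 uM dopamine as the EC100 control.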
TRPML1 agonist = activates the human TRPML1 channel. TRPML1-expressing cells, Ca2+ dye fluorescence, FDSS; host cell line not named in the record; reference of the full effect not given here. activation, % (test concentration not listed). 410,000 compounds, 0.12% hits; in the data active = activation above about 50%; inconclusive = about 30% to 50%; inactive = below about 30%; note: 0% is about no effect; the text of the record puts the active cut at 80%
Target sequence (Q9GZU1 whole entry, looked up): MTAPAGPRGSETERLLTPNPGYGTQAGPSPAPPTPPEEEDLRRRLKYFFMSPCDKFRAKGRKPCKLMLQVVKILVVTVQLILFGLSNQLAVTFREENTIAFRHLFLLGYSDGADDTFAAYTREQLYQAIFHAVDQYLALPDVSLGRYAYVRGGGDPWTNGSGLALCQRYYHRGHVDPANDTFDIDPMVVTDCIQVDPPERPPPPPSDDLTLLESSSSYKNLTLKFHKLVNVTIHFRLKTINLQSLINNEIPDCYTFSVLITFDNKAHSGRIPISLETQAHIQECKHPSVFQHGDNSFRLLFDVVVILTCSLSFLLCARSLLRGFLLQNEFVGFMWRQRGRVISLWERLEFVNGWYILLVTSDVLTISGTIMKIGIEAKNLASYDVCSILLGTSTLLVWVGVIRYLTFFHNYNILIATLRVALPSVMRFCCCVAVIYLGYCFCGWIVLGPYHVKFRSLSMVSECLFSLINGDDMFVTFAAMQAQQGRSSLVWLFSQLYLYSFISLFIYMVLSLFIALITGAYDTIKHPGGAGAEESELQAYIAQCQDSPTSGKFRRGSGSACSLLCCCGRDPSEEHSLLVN
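In this qHTS format, compounds were pin-transferred onto Ca8-dye-loaded TRPML1-DL cells induced with Tet overnight, and intracellular Ca2+ fluorescence was recorded kinetically for 110 s after a 10 s baseline. A subsequent 4uM final 54-4 (EC80) addition followed by a second 110 s read served as the antagonist phase.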
CtBP-E1A blk = blocks the CtBP interaction with E1A; 340,000 compounds, 0.49% hits; activity change, % (test concentration not listed); AlphaScreen GST-E1A/His-CtBP binding, 1536-well; stronger effect = lower value; control for the full effect not named in the record; AID 651724; in the data active means activity change below about -65%; inconclusive means about -30% to -65%; inactive means above about -30%; note: % is set by controls: 0 for no effect and ±100 for the full control effect
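Steps: dispense buffer (Tris pH 8.0, NaCl 300 mM, TCEP 1 mM, BSA, Tween 20); add 5X protein mix (GST-E1A, His-CtBP, 125 nM each); pin 23 nL compound; 2 h at 37 °C, dark; add 5X beads (50 ug/mL); 1 h; read.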
PINK1 expr mod = modulators of PINK1 expression; Potency, µM (top dose mostly 76.6 µM), for inactives: top-dose activation (PINK1 increase), most hits filed as activators; PINK1 immunofluorescence, high-content cytometry, 24 h; 410,000 compounds, 0.2% hits; active = well fitted activation curve with a large enough effect; inconclusive = small, poorly fitted or top-dose-only effect; inactive = flat fitted curve, though single readings scatter; cell line not stated here;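 note: potency is the fitted concentration of half-maximal effect; % of control where 0% means no effect; nearly all actives have a fitted effect of over 65% in size; a mitochondrial uncoupler was the plate control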
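Fluorescence from anti-PINK1 antibody, together with nuclear and cell stains, was scanned on a laser-scanning cytometer. Before staining, stable-line cells were incubated 24 hours with compounds at 5 concentrations; primary antibody 12 h at 10 degrees C.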
Six1-Eya2 blk = blocks human Six1 binding to Eya2. activity change, % (test concentration not listed). AlphaScreen GST-Six1/His-Eya2 binding, biochemical; stronger effect = lower value; control for the full effect not named in the record. Q15475+O00167. AID 651725. 360,000 compounds, 0.56% hits; in the data active = activity change below about -65%; inconclusive = about -30% to -65%; inactive = above about -30%; note: % is set by controls: 0 for no effect and ±100 for the full control effect
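AlphaScreen with GST-Six1 and His-Eya2 (5X mix: 250 nM and 500 nM), glutathione donor and nickel acceptor beads; buffer 50 mM Tris pH 8.0, 300 mM NaCl, 1 mM TCEP; 1 h at 37 C in the dark.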
D2 ag = activates the human D2 dopamine receptor. DiscoveRx PathHunter D2 beta-arrestin, luminescence, 90 min; 100% = 57 uM dopamine signal. AID 624465. P14416. activation, % (no concentration beside the values). 360,000 compounds, 0.084% hits; in the data active = activation above about 40%; inconclusive = about 15% to 40%; inactive = below about 15%; note: compound concentration not given in the record; the text of the record calls up to 30% inactive
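Agonist mode: compounds alone added to overnight-plated D2 PathHunter cells for 90 min at 37 C, with 57 uM final dopamine (EC100) defining full response. Beta-arrestin recruitment detected by chemiluminescent reagent, read after 1 h at ambient temperature.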
* hit, by the source's call; ? = inconclusive; · = no result given; & = joins results of further samples; [ ] = dose if it differs, or a comment.

SMILES	D2 PAM	TRPML1 agonist	CtBP-E1A blk	PINK1 expr mod	Six1-Eya2 blk	D2 ag
O=C(NNc1nc2cc3c(cc2s1)OCCO3)c1ccc(F)cc1	0.7	-0.5	2.0	1.6%	-2.1	0.8
CN(C)c1ccsc1C(=O)NNS(=O)(=O)c1ccc(Cl)cc1	-21.2	0.8	2.3	-0.3%	2.0	-1.3
O=C(c1ccc(F)cc1)N1CCC(C(=O)N2CCCc3ccccc32)CC1	-13.0	3.7	2.7	-2.0%	2.1	-2.3
Cc1ccc(NC(=O)CSc2nnc(-c3ccncc3)o2)cc1C	-3.0	0.5	27.5	-1.3%	5.6	-0.2
C[n+]1ccc(C(=O)N/N=C/c2ccco2)cc1	-4.7	0.1	-3.6	1.7%	0.0	-0.3
COC(=O)c1ccc(NC(=O)CSc2nncn2C)cc1	-5.6	0.5	5.1	2.4%	6.0	1.3
COc1ccc(S(=O)(=O)N2CCCCCC2)cc1C(=O)OCc1c(C)noc1C	3.1	0.4	3.7	-2.0%	1.4	-0.7
CCCc1nnc2n1N=C(c1ccc(OC)c(OC)c1)CS2	1.7	-0.1	-12.6	·	-27.6	0.1
COCCNC(=O)CNC(=O)c1nn(-c2ccc(OC)c(Cl)c2)c(=O)c2ccccc12	-3.7	-0.9	-2.6	-0.4%	-0.2	-4.3
O=C(Nc1nccs1)c1ccc(S(=O)(=O)N2CCCCC2)cc1	1.6	-0.9	-1.6	3.8%	-5.3	3.8
CCOC(=O)CSc1nc2sc3c(c2c(=O)n1-c1ccc(OCC)cc1)CCN(C)C3	-10.4	0.8	·	1.5%	-2.4	-10.5
O=C1NCC(O)=C1C=Nc1ccccc1O	9.3	1.3	·	2.0%	19.3	5.2

5 entries from above in another layout:
Every second line gives: D2 PAM | TRPML1 agonist | CtBP-E1A blk | PINK1 expr mod | Six1-Eya2 blk | D2 ag
C[n+]1ccc(C(=O)N/N=C/c2ccco2)cc1
 : -4.7 | 0.1 | -3.6 | 1.7% | 0.0 | -0.3
COC(=O)c1ccc(NC(=O)CSc2nncn2C)cc1
 : -5.6 | 0.5 | 5.1 | 2.4% | 6.0 | 1.3
COc1ccc(S(=O)(=O)N2CCCCCC2)cc1C(=O)OCc1c(C)noc1C
 : 3.1 | 0.4 | 3.7 | -2.0% | 1.4 | -0.7
CCCc1nnc2n1N=C(c1ccc(OC)c(OC)c1)CS2
 : 1.7 | -0.1 | -12.6 | · | -27.6 | 0.1
COCCNC(=O)CNC(=O)c1nn(-c2ccc(OC)c(Cl)c2)c(=O)c2ccccc12
 : -3.7 | -0.9 | -2.6 | -0.4% | -0.2 | -4.3

Following part:
SMILES	D2 PAM	TRPML1 agonist	CtBP-E1A blk	PINK1 expr mod	Six1-Eya2 blk	D2 ag
Cc1ccc(S(=O)(=O)N2CCCOC2CNC(=O)C(=O)NC2CCCC2)cc1 (configuration not stated)	-10.0	-0.6	3.6	0.8%	1.5	-1.6
COC(=O)C[C@H](NC(=O)Cn1cc(C)c(=O)[nH]c1=O)C(=O)OC	-7.6	-0.3	4.5	2.2%	1.0	-2.6
Cc1ccc(N2CC(C(=O)OCc3nc(N)nc(Nc4ccccc4C)n3)CC2=O)cc1 (configuration not stated)	-8.4	1.2	-7.6	1.5%	36.4	-1.9
O=C(NCCCn1ccnc1)c1nc(Cn2cc(Br)cn2)no1	-5.1	-0.2	-9.0	-0.5%	0.2	0.2
Nc1ccc(-c2c3ccccc3nc3ccccc23)cc1	-2.3	0.2	3.0	13.2%	13.2	-1.2
CCn1c(C)c(C)c2cc(C(=O)N3CCCC3)ccc21	-21.5	-0.6	-29.5	-1.0%	-19.3	3.8
CSc1cccc(CN2CCCC(CNC(=O)c3ccco3)C2)c1 (configuration not stated)	-44.6	0.3	-1.6	3.6%	-9.9	-0.2
CCN(CCCNC(=O)CCc1nc(-c2ccc(OC)cc2)no1)c1cccc(C)c1	-31.7	4.5	-14.2	9.1%	-19.9	-0.3
O=C(NCCN1CCOCC1)c1cc(-c2ccccc2)nc2ccccc12	-24.3	-0.5	1.6	1.6%	-0.9	-1.5
Cn1c(N)c(C(=O)Nc2ccc(-c3ccccc3)cc2)sc1=S	-7.4	1.0	-24.1	-1.1%	-25.5	-5.8
Cc1sc2ncnc(SCC(=O)NC3CC3)c2c1C	1.9	-0.4	18.1	3.0%[38.3 µM]	0.6	0.3
COC(=O)c1cc(COC(=O)c2nc3nccc(C)n3n2)oc1C	10.1	0.3	0.3	1.1%	5.3	4.0
CCCN1CCN(C(=S)Nc2ccc(S(N)(=O)=O)cc2)CC1	-6.2	-0.6	3.5	-1.1%	0.1	-4.0
CC(C)CNc1nc(Oc2ccc(=O)[nH]n2)nc(N2CCOCC2)n1	-0.4	-0.1	0.5	0.6%	1.6	1.8
CCc1ccccc1NC(=O)CN(C)C(=O)CSc1nnc(Nc2ccc(C)cc2)s1	11.1	0.0	5.9	7.8%	-9.5	-1.0
CCc1sc(C(=O)NC)cc1Br	-10.9	0.1	9.8	-1.3%[38.3 µM]	1.4	-1.4
CCNC(=S)NNC(=O)c1cccc(Br)c1	-18.2	0.1	11.4	-1.0%[38.3 µM]	4.8	-4.0
CC(=O)c1cccc(NC(=O)C(C)OC(=O)CCn2c(C)csc2=O)c1 (configuration not stated)	-7.1	-0.1	·	-1.5%	4.9	-1.9
COc1ccccc1N1C(=O)C2C(C(=O)c3ccccc3)=NN(c3ccc(C)cc3)C2C1=O (configuration not stated)	-10.9	16.8	9.4	3.9%	139.0	-7.5
c1ccc2c(c1)[nH]c1ccccc12	-30.2	·	-5.5	1.9%	11.3	-7.8
COc1cc(/C(C)=N/N2CCN(Cc3ccc(C)cc3)CC2)ccc1O	-65.3	·	·	0.1%	1.1	-1.8
COc1ccc(NC(=O)NCCc2cccc(Cl)c2)cc1OC	0.8	2.4	-8.8	4.2%	-3.5	-3.6
CCCOC(=O)C1NC(=O)N2C(C(=O)OCCC)C(C)(C)S[C@H]12 (some centres not stated)	-2.9	-0.1&-0.8	-3.0	-1.0%	4.6	-3.0
Cc1c(NC(=O)C(C)OC(=O)C(NC(=O)c2ccco2)C(C)C)c(=O)n(-c2ccccc2)n1C (configuration not stated)	3.8	-0.3	7.9	12.0%[38.3 µM]	5.7	2.3
CCOc1ccc(N2CC(C(=O)Nc3ccccn3)CC2=O)cc1 (configuration not stated)	6.5	0.0	2.1	-0.3%	8.2	-2.8
NC(=O)c1cc(S(=O)(=O)NCc2cccc(Br)c2)cs1	-7.8	3.9&-0.3	·	-1.0%&0.7%	3.0	4.6
O=C(NCCC(=O)N1CCOCCOCCOCCOCC1)OCc1ccccc1	6.7	0.7	·	0.0%	6.4	5.2
O=C(CSCc1ccccc1Cl)Nc1ccc2c(c1)OCCO2	3.1	1.1	-0.7	2.6%	-0.2	0.4
COc1ccc(C(=O)NC(=S)Nc2cccc(Cl)c2N2CCOCC2)cc1[N+](=O)[O-]	-1.9	-0.5	-8.1	20.9%[38.3 µM]	-1.8	-0.4
CCOc1cc2[nH]c(=S)n(CCC(=O)NCc3ccc(OC)cc3)c(=O)c2cc1OCC	-17.9	-0.4	3.6	1.6%	-4.6	-3.6
COc1cccc(Nc2nc(C(N)COCc3ccccc3)cs2)n1 (configuration not stated)	-1.5	-0.9	?	-1.0%	-28.4	2.3
Cc1ccc(C)c(S(=O)(=O)N2CCN(C(=O)Cc3ccccc3)CC2)c1	-15.8	0.8	7.8	-3.3%	-5.6	-2.7
NS(=O)(=O)c1cccc(NC(=O)CSc2nnc(C3CC3)n2Cc2ccccc2)c1	0.8	1.2	0.0	-2.5%	14.9	-0.4
CCN1CCCC1CNCC(O)COc1ccc(C(C)(C)C)cc1C (configuration not stated)	-2.0	-0.6	-1.7	2.7%	0.0	-0.2
COc1ccc(C(=O)NC2=NCCS2)cc1	-5.3	1.1	-0.5	3.5%	-7.7	-3.4
C=CCNC(=O)CSc1cc([N+](=O)[O-])cc(S(=O)(=O)Cc2ccccc2)c1	?	-0.4	2.8	2.2%	-1.5	8.5
CC(OC(=O)c1cccs1)C(=O)NCc1cccs1 (configuration not stated)	1.1	1.1	1.1	-1.7%	1.4	1.9
Cc1nn(CCOc2ccccc2)c(=O)n1-c1ccccc1F	-9.6	-0.5	6.6	3.8%[38.3 µM]	1.8	-0.3
C=CCOCC(O)Cn1c(N2CCCC2)nc2c1c(=O)n(C)c(=O)n2C (configuration not stated)	1.0	-0.5	9.6	0.4%	-0.6	-5.9
COc1ccc(C2=CCC3CCCCN3C2)cc1OC (configuration not stated)	-23.7	-0.1	-0.5	-0.4%	1.2	-2.2
COCCCn1c(=O)c2sccc2n2c(CCCC(=O)NCc3ccc(OC)cc3)nnc12	-4.8	-0.1	5.4	-0.1%	1.0	2.9
O=C(CCN1C(=O)/C(=C/c2ccccc2)SC1=S)N[C@@H](CO)Cc1ccccc1	-10.2	-1.2	-15.3	1.1%	-13.4	-8.5
CCOC(=O)c1sc2nc(C)nc(SC(C)C(=O)NC3CC3)c2c1C (configuration not stated)	-0.5	4.1	3.2	-0.5%	6.5	5.7
COc1ccc(C(=O)CCC(=O)NCc2cc(OC)cc(OC)c2)cc1	2.2	-0.7	5.2	1.6%	-2.3	2.0
COCCCn1c(SCC(=O)Nc2ccc(C(C)=O)cc2)nc2ccccc2c1=O	-1.3	-0.1	-10.3	-1.7%	-1.8	-1.4
CCOC(=O)N1CC=C2C(C#N)=C(N)C(C#N)(C#N)[C@H](c3ccccc3OCC)[C@H]2C1	-7.5	0.2	11.0	17.2%[38.3 µM]	1.4	-2.1
COCc1cc(SC2CCCCC2)nc(C)n1	-4.4	0.6	0.0	3.0%	4.1	-1.6
CC(C)c1ccc(/C=C2\C(=O)N(CCN3CCOCC3)C(=S)N2C)cc1	3.4	3.2	-3.9	5.1%	6.9	4.5
NC(Cc1ccc(Cl)cc1)c1csc(Nc2ccc(C(F)(F)F)cn2)n1 (configuration not stated)	-1.0	3.9	0.1	-1.2%	-2.7	-3.7
Cc1c(S(=O)(=O)NCCc2ccccc2)c(=O)n(C)c(=O)n1C	0.9	0.6	4.8	0.6%	-5.3	0.2
CCSc1nc(-c2cccnc2)ccc1C#N	0.1	-1.0	·	0.2%	-4.0	-2.6
CCOC(=O)c1cc2c(=O)n3ccccc3nc2n(CCOC)c1=NC(=O)c1ccncc1	12.6	-0.2	-22.3	-1.9%	-1.0	-3.6
CN1CCN(c2nc(-c3ccccc3)ncc2S(C)(=O)=O)CC1	-11.2	-0.9	-8.5	0.3%	-17.5	0.7
COc1cc(N)c2ncccc2c1Br	-11.2	-1.4	-20.3	-0.7%	-6.2	-1.5
COc1ccc(CCNC(=O)c2cc(-c3cccs3)on2)cc1OC	8.8	1.0	-0.4	6.4%[38.3 µM]	-0.7	-0.3
CCOC(=O)C1CCCN(C(=O)c2ccc(CNc3c(N4CCC(C)CC4)c(=O)c3=O)cc2)C1 (configuration not stated)	-4.6	-1.1	0.7	-1.1%	-5.9	-4.6
